From PubChem BioAssay
ClpP mod = qHTS Assay for Activators of ClpP | 340,000 compounds, 1.9% hits | ATP-dependent Clp protease proteolytic subunit (Bacillus subtilis (strain 168)), P80244 | purified B. subtilis ClpP, FRET peptide cleavage, 20 min | AID 651965, 2013 | Potency, µM (top dose mostly 57.5 µM), without a hit: top-dose activity change, negative = active; active = well fitted falling curve with a large enough effect; inconclusive = small, poorly fitted or top-dose-only effect; inactive = no such curve, though single readings can be large or run the other way; further: potency means the concentration at half of the fitted maximal effect; the source files actives as falling curves though it sought activators and does not explain the sign; nearly all actives have a fitted effect of over 65% in size; many hits overshoot -100%
Target sequence (P80244 whole entry, looked up): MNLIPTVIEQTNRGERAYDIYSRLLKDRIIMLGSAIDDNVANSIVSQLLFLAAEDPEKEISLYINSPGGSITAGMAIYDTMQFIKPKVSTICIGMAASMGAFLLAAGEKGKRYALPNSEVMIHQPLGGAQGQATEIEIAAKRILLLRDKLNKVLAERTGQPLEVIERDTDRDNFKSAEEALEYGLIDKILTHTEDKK
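Buffer: 100 mM Tris/HCl pH8, 100 mM KCl, 0.05% low protease BSA, 2.5% glycerol, 0.01% Tween-20. ClpP 10 microg/mL final; 20 min RT; delta FRET normalized to ADEP and DMSO controls.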
CtBP-E1A blk = CtBP/E1A binding inhibition | AlphaScreen GST-E1A/His-CtBP binding, 1536-well; stronger effect = lower value; control for the full effect not named in the record | activity change, % (test concentration not listed) | 340,000 compounds, 0.49% hits; in the data active means activity change below about -65%; inconclusive means about -30% to -65%; inactive means above about -30%; further: on the % scale 0 is the no-effect control and ±100 the full control effect
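Steps: dispense buffer (Tris pH 8.0, NaCl 300 mM, TCEP 1 mM, BSA, Tween 20); add 5X protein mix (GST-E1A, His-CtBP, 125 nM each); pin 23 nL compound; 2 h at 37 °C, dark; add 5X beads (50 ug/mL); 1 h; read.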
The depositor's hits bear a star; ? = inconclusive. Not all compounds are listed; rates above refer to the full screens.

A first look (5 entries):
Second line of a record – ClpP mod, CtBP-E1A blk
1: CCCS(=O)(=O)NC(=O)C1(C)CCCN(C(=O)c2ccc3snnc3c2)C1 (stereo unspecified)
 : 0.2%, 4
2: CCc1nc2ccc(C(=O)Nc3cccc(OC)c3)cn2c1N(CC)CCOC
 : 0.7%, 15
3: COc1ccc(CNC(=O)Nc2nc(C(N)Cc3ccc(Cl)cc3)cs2)cc1 (stereo unspecified)
 : 0.0%, -7
4: COc1ccc(CCNC(=O)c2ccc(Br)o2)cc1Br
 : 0.5%, 0
5: CC(=O)NC(c1ccccc1)c1nc(/C=C/c2ccccc2)cs1 (stereo unspecified)
 : -2.5%, 1

The listing, from the first entry:
Second line of a record – ClpP mod, CtBP-E1A blk
1: CCCS(=O)(=O)NC(=O)C1(C)CCCN(C(=O)c2ccc3snnc3c2)C1 (stereo unspecified)
 : 0.2%, 4
2: CCc1nc2ccc(C(=O)Nc3cccc(OC)c3)cn2c1N(CC)CCOC
 : 0.7%, 15
3: COc1ccc(CNC(=O)Nc2nc(C(N)Cc3ccc(Cl)cc3)cs2)cc1 (stereo unspecified)
 : 0.0%, -7
4: COc1ccc(CCNC(=O)c2ccc(Br)o2)cc1Br
 : 0.5%, 0
5: CC(=O)NC(c1ccccc1)c1nc(/C=C/c2ccccc2)cs1 (stereo unspecified)
 : -2.5%, 1
6: COc1cccc(-c2oc3c(c2C(=O)OCCN(C)C)C(O)CCC3)c1 (stereo unspecified)
 : 5.0%, 5
7: O=C(/C=C/[C@H]1O[C@@H](n2ccc(=O)[nH]c2=O)[C@H](O)[C@@H]1O)NCCc1cccs1
 : -2.6%, 3
8: COc1ccccc1-c1cccc(-c2nc(C(=O)Nc3nccs3)cc3c2[C@H](CCO)N(C(C)=O)C3)c1
 : 1.1%, -4
9: CC(C)C[C@H]1CNC(=O)C(=O)N1CC1CCN(CCc2ccccc2)CC1
 : 0.5%, 6
10: O=C(Nc1ccc2c(c1)OCO2)c1csc(COCCO)n1
 : -1.6%, -5
11: C=CCn1c(-c2ccccn2)n[nH]c1=S
 : -16%, ?
12: CC(C)C[C@H]1CN(CCCC[C@H]2CNC(=O)C(=O)N2Cc2ccccc2)C(=O)C(=O)N1CCc1ccccc1
 : -0.5%, 4
13: CC(C)c1ccccc1NC(=O)Nc1nc(C(N)Cc2ccc(C(F)(F)F)cc2)cs1 (stereo unspecified)
 : -6.2%, 2
14: Cc1cccc(C)c1-n1nnnc1C(c1cc2ccccc2o1)N1CCN(C/C=C/c2ccccc2)CC1 (stereo unspecified)
 : 1.6%, -22
15: CS(=O)(=O)c1ccc(Nc2nc(C(N)c3ccccc3Cl)cs2)cc1 (stereo unspecified)
 : ?, 0

Sorted by count of non-hydrogen atoms (lowest first): part of the list above.
Second line of a record – ClpP mod, CtBP-E1A blk
4: COc1ccc(CCNC(=O)c2ccc(Br)o2)cc1Br
 : 0.5%, 0
10: O=C(Nc1ccc2c(c1)OCO2)c1csc(COCCO)n1
 : -1.6%, -5
6: COc1cccc(-c2oc3c(c2C(=O)OCCN(C)C)C(O)CCC3)c1 (stereo unspecified)
 : 5.0%, 5

(list continues)
Second line of a record – ClpP mod, CtBP-E1A blk
16: COC(=O)[C@@]1(C(C)C)N=C(c2cc(OC)c(OC)c(OC)c2)[C@]2(O1)C(=O)N(C)c1ccccc12
 : -2.9%, -6
17: CC(=O)Nc1ccc(NC(=O)C2(C)Cc3c(-c4ccc(NC(C)=O)cc4)ccnc3O2)cc1 (stereo unspecified)
 : -8.9%, 3
18: CC1=C(C(=O)N2CCOCC2)CC(CC(=O)NC2CC2)C(=O)N1CCC1=CCCCC1 (stereo unspecified)
 : -2.4%, 7
19: O=C(Nc1ccc2c(c1)OCCO2)C(c1ccncc1)n1c(=O)c(-c2cc3ccccc3[nH]2)nc2ccccc21 (stereo unspecified)
 : -23%, -5
20: O=C(NCCN1CCC(n2c(=O)[nH]c3ccccc32)CC1)c1cccnc1Cl
 : -16%, 4
21: COc1ccc(Cc2nnc(SC)n2-c2ccc(F)cc2)cc1OC
 : -0.3%, -11
22: O=S1(=O)N[C@H](Cc2ccccc2)COc2cccc(N3CCN(Cc4ccccc4F)CC3)c21
 : -4.3%, -8
23: CCCN(C)C[C@@H]1OCCCC[C@@H](C)Oc2ccc(NS(=O)(=O)c3ccc(OC)cc3)cc2C(=O)N([C@H](C)CO)C[C@@H]1C
 : -8.2%, -18
24: CCCNC(=O)C1(C)CCN(C(=O)c2ccc(OC(F)F)cc2)C1 (stereo unspecified)
 : -0.9%, 1
25: CC(C)N(C)c1ncnc2c1ncn2[C@H]1CN(Cc2cccnc2)C[C@@H](CO)O1
 : -1.6%, 8
26: CC(=O)NC(c1ccccc1)c1nc(-c2cccc(C(F)(F)F)c2)cs1 (stereo unspecified)
 : 1.9%, 2
27: O=C(Nc1ccncc1)c1cc(C2CCCCN2C(=O)CCCc2ccccc2)on1 (stereo unspecified)
 : 1.6%, -9
28: COC(=O)c1ccc2cc(F)cc(C)c2n1
 : 4.2%, 12
29: C[C@H]1CN([C@@H](C)CO)S(=O)(=O)c2ccc(-c3ccc(C#N)cc3)cc2O[C@H]1CN(C)C(=O)CN(C)C
 : 0.1%, 5
30: O=C(NC(c1ccc(F)cc1)c1ccc2ccccc2n1)C1CCN(Cc2ccc(Oc3ccccc3)cc2)CC1 (stereo unspecified)
 : -11%, ?
31: CC(=O)N1CCOCC1c1cc(C(=O)Nc2ccccc2)no1 (stereo unspecified)
 : -0.4%, 0
32: COc1ccccc1Cc1c(-c2ccc(C#N)cc2)nc2ccc(C)cn12
 : 4.8%, 0
33: COc1cccc(NC(=O)C2(C)CCN2Cc2ccc3ccccc3c2)c1 (stereo unspecified)
 : -1.9%, 0
34: Cc1ccc2nc(C3CCCCC3)c(Cc3cccc(F)c3)n2c1
 : 4.7%, -25
35: CC1(C(=O)NCC2CCOCC2)Cc2c(-c3cccc(C(N)=O)c3)ccnc2O1 (stereo unspecified)
 : -12%, 2
36: OC(c1ccc(F)c(F)c1)c1nc(-c2cccs2)cs1 (stereo unspecified)
 : 1.3%, 3
37: COC(=O)C1=CN(c2ccc(Oc3ccccc3)cc2)C(N)=C(C#N)C1c1cccc(OC)c1OC (stereo unspecified)
 : -3.0%, -14
38: COc1ccc(NC(=O)c2cc(-c3cc(Cl)ccc3OC)n[nH]2)c(OC)c1
 : -7.9%, 14
39: CCNC(=O)C1CCCN(C(=O)c2cc(F)ccc2C)CC1 (stereo unspecified)
 : 0.9%, 0
40: CCCCN(C=O)c1c(CC)nc2c(OCc3cc(Cl)cc(Cl)c3)cccn12
 : -4.7%, ?
41: COc1ccccc1-c1noc2c1C(=O)N(Cc1cn(-c3ccccc3OC)nn1)CC2
 : -1.3%, 3
42: O=C(NC1CCCC1)C(C1CC1)n1c(-c2ccccn2)nc2ccccc21 (stereo unspecified)
 : 4.4%, -6
43: CC(C)c1cc(Cn2c3ccccc3c(=O)n2C(C)Cn2cc(-c3ccc(C(C)(C)C)cc3)nn2)on1 (stereo unspecified)
 : 4.0%, 1
44: Cc1cc(Cl)ccc1C(O)c1ncc(-c2ccccc2C(F)(F)F)[nH]1 (stereo unspecified)
 : -0.8%, 3
45: c1ccc(Cn2ncc3c(N4CCN(c5ccccc5)CC4)ncnc32)cc1
 : ?, -13
46: CC(C)(C)NC(=O)C1c2ccccc2OCC(=O)N1CCc1ccccc1 (stereo unspecified)
 : -0.4%, 3
47: CCOC(=O)C1CCCN(C(=O)c2ccc(F)c(Cl)c2)CC1 (stereo unspecified)
 : 0.8%, 6
48: Cc1ccc(OCc2nc3ccccc3n2C(C)C(=O)Nc2c(C)cccc2C)cc1 (stereo unspecified)
 : -2.7%, -2
49: c1ccc(N2CCN(c3cccc(-c4cc5ccccc5s4)n3)CC2)nc1
 : 4.3%, 17
50: CC(C)Oc1cc(F)ccc1-c1cc(C(=O)NC2CCCCC2)[nH]n1
 : -1.4%, -3
51: CC1(C(=O)NS(=O)(=O)Cc2cccc(Cl)c2)CCN1C(=O)C1(c2ccc(Cl)cc2)CCC1 (stereo unspecified)
 : -2.1%, -14
52: CCCCCCn1cc(CN2CC(N3CCN(C)CC3)CS2(=O)=O)nn1 (stereo unspecified)
 : 0.9%, 4
53: CC(C)c1ccc(NC(=O)C2(C)Cc3c(-c4ccc5c(c4)OCO5)ccnc3O2)cc1 (stereo unspecified)
 : 5.3%, -2
54: COc1ccc(C(C)NC(=O)C2CCN(CCCc3ccccc3)CC2)cc1OC (stereo unspecified)
 : 1.7%, 0
55: Cc1cc(NC(=O)OC(C)(C)C)c(-n2nnnc2C(C(=O)c2ccc3c(c2)OCO3)N2CCN(c3ccccn3)CC2)cc1C (stereo unspecified)
 : -29%, 1
56: Clc1ccc2nc(-c3cccc(Br)c3)c(Cc3ccccc3)n2c1
 : -27%, 2
57: CC1(C(=O)NS(=O)(=O)C2CC2)CCN(C(=O)COc2ccc(Cl)cc2Cl)C1 (stereo unspecified)
 : 0.3%, 7
58: COc1ccc(-c2coc3c(C(=O)NCc4ccccc4)cccc23)c(C)c1
 : ?, -3
59: CN(c1ccc([N+](=O)[O-])cc1)c1cc2c(c3c1ccn3C)C1CCC2C1 (stereo unspecified)
 : 0.7%, -27
60: CCOC(=O)CC1(C)Oc2cc(Cl)ccc2N1S(=O)(=O)c1ccc(C)cc1 (stereo unspecified)
 : -2.9%, -1
61: COc1ccc(N=C(C)C2C(=O)c3ccccc3C2=O)cc1
 : -2.4%, -7
62: CCc1ccc(C(O)c2ncc(-c3ccccc3F)[nH]2)cc1 (stereo unspecified)
 : -0.7%, 1
63: CC(=O)Nc1cc(-c2cccc(NS(C)(=O)=O)c2)cn2c(-c3cccc(C(F)(F)F)c3)cnc12
 : -17%, -10
64: CCCCC(=O)N(C)c1c(C)nc2ccc(C(=O)N3CCN(c4ccccc4)CC3)cn12
 : -6.2%, 0
65: O=S(=O)(Nc1ccc(C(O)(C(F)(F)F)C(F)(F)F)cc1)c1cccc2cccnc12
 : 0.3%, 0
66: O=C(NCc1cccnc1)c1cc(C2CCCCN2S(=O)(=O)Cc2ccccc2)on1 (stereo unspecified)
 : -0.2%, 1
67: COc1ccc(NC(=O)C2(C)Cc3c(-c4ccc5c(c4)OCO5)ccnc3O2)cc1 (stereo unspecified)
 : 4.6%, -18
68: CCOP(=O)(OCC)C(Cc1ccccc1)N=C(c1ccccc1)c1ccccc1 (stereo unspecified)
 : 0.5%, -7
69: CCCNC(=O)C1(C)CCCN(C(=O)c2cc(C)n(C(C)(C)C)n2)C1 (stereo unspecified)
 : 2.4%, 4
70: CCCCCCCCC(c1nc2ccccc2[nH]1)N1CCN=C(c2ccccc2)C1=O (stereo unspecified)
 : -7.5%, -1
71: CC(=O)Nc1ccc(-c2ccnc3c2CC(C(=O)Nc2cccnc2)O3)cc1 (stereo unspecified)
 : 4.5%, 0
72: CCOC(=O)C1(C)CCN1C(=O)c1ccc(C(=O)OC)cc1 (stereo unspecified)
 : -1.5%, -3
73: CC(=O)c1cccc(-c2ccnc3c2CC(C(=O)NCc2ccc(F)c(F)c2)O3)c1 (stereo unspecified)
 : -0.9%, 2
74: CN(C)Cc1csc(NC(=O)Nc2ccccc2Cc2ccccc2)n1
 : -0.8%, -5
75: CCc1nc2ccc(C(=O)NCCOc3ccc(OC)cc3)cn2c1N(CCN(C)C)CC1CC1
 : -2.0%, -9

(further entries)
Second line of a record – ClpP mod, CtBP-E1A blk
76: Cc1ccc(Nc2nc(NCC3CC3)nc3ccsc23)c(C)c1
 : -7.3%, -9
77: O=C(/C=C/[C@H]1O[C@@H](n2ccc(=O)[nH]c2=O)[C@H](O)[C@@H]1O)NCc1cccc2ccccc12
 : 3.0%, 7
78: COc1ccc(C(C)(O)c2nc(-c3ccccc3OC)cs2)cc1 (stereo unspecified)
 : -2.2%, 1
79: COc1ccccc1-c1cc(NC=O)c2ncc(-c3cccc(C(=O)N(C)C)c3)n2c1
 : -19%, -24
80: C#CCn1c2ccccc2c(=O)n1CCOc1ccccc1OC
 : -9.5%, 7
81: CCc1nc2c(OCC(=O)C(C)(C)C)cccn2c1N(C)C(=O)CC(C)C
 : -3.3%, 1
82: COc1cccc(CN2CCC2(C)C(=O)Nc2cccc(Oc3ccccc3)c2)c1OC (stereo unspecified)
 : -0.5%, 0
83: O=C1c2ccccc2C(c2nnnn2Cc2ccccc2)N1Cc1ccc(F)cc1 (stereo unspecified)
 : 1.8%, 6
84: COc1ccc(CNC(=O)[C@H](Cc2ccccc2)NC(=O)CC[C@H]2O[C@@H](n3ccc(=O)[nH]c3=O)[C@H](O)[C@@H]2O)cc1
 : 0.2%, 1
85: CCCNC(=O)C1(C)CCN(C(=O)Cc2ccc(OC)c(OC)c2)C1 (stereo unspecified)
 : 0.7%, -1
86: N#Cc1cccnc1N1CCN(C(C(=O)NC2CCCC2)c2ccco2)CC1 (stereo unspecified)
 : ?, -12
87: COc1ccc(OC)c(S(=O)(=O)NC(=O)C2(C)CCN2C(=O)Cc2ccc(Cl)cc2Cl)c1 (stereo unspecified)
 : -1.0%, -8
88: CC1(C(=O)NS(C)(=O)=O)CCN1C(=O)Cc1ccc(-c2ccccc2)cc1 (stereo unspecified)
 : 4.4%, 5
